Screening data from PubChem.
WT yeast gro inh = growth inhibition of WT yeast, mitochondrial fusion screen | mitochondrial fusion phenotypic screen, WT strain | inhibition, % at 10 µM | hit rate 2.1% among 190,000; in the data active means inhibition above about 58%; tested in S. cerevisiae
MT stabilize HCS = microtubule stabilization, imaging screen; HeLa tubulin immunostaining HCS, 24 h; share of cells brighter than vehicle mean+2SD; % tubulin-high responders, % at 10 µM; hit rate 0.83% among 200,000; AID 2205;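 active means plate Z-score above 3 for both tubulin-high and condensed-nucleus cell shares, with cell loss under 80%, at 10 µM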;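 further: anti alpha tubulin signal scored within the nucleus-defined area of each cell; some results filed as inactive read as strong as hits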
Autophagy HCS = autophagy modulation, high-content screen; AID 463193; calls only at 10 µM (by protocol); hit rate 0.98% among 190,000; MEF GFP-LC3 puncta imaging; test concentration mostly 10 µM;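 active means percentage of spot-positive cells more than 3 SD above its plate mean, without a fluorescence outlier flag or 80% toxicity; inconclusive means no clear call, values can overlap the other calls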;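 further: spot-positive cell cutoff set from DMSO-treated cells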
Dynein cargo inh = blocks dynein driven cargo transport along microtubules; 3617.4 mouse cells, GR-EGFP nuclear translocation imaging; test concentration mostly 20 µM; stimulated with dexamethasone, 1 µM; hits give low values; z-score, hits read low; hit rate 0.47% among 220,000; AID 1381;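 active means plate z-score of nuclear minus cytoplasmic receptor signal below a set negative limit, without overly bright fluorescence or cell loss, cut at about -3.5 in these data, passing the limit was not always enough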;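 further: z-score of nuclear minus cytoplasmic ring GR-EGFP intensity difference per well; some compounds called inactive have numbers as strong as hits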
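medium = tetracycline-free induction medium containing charcoal-stripped FBS | probe or stimulus = dexamethasone, 1.0 µM final | timing = 48 h induction, then 1 h compound, then 30 min agonist, 37 °C | detection = automated 10x imaging of fixed Hoechst-stained cells | read-out basis = nuclear versus cytoplasmic GR-EGFP signal, averaged per well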
Yfh1-off respiration = mitochondrial function rescue without frataxin homolog – Friedreich's ataxia, plus single-dose screen, dose response (AID 1465); S. cerevisiae Yfh1-off respiration, WST-1 reduction, 72 h; higher fold induction means a stronger effect; fold induction at 50 µM, or EC50 in µM where a hit was titrated; hit rate 0.074% among 220,000;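 active means fold induction of absorbance versus untreated yeast above a set limit, then at least 30% activation at any dose in follow-up; inconclusive means repeats straddling the limit, or above it without dose testing; inactive means fold induction below the set limit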;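 further: activators that raise dye reduction in frataxin-depleted yeast; strong numbers were not always called active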
Insulin prom up = MIN6 insulin promoter up-regulation. MIN6 insulin promoter-GFP reporter, high-content imaging; hits give high values. z-score at 5 µM. hit rate 0.3% among 190,000. AID 1625;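 active means z-score above 3 at 5 µM with at least 500 cells counted in the well; inconclusive means wells under 500 cells, flagged as cytotoxic or low count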
WT yeast gro inh mutant strain = further read-out of WT yeast gro inh, marked with its call; inhibition, %; mitochondrial fusion phenotypic screen, mutant strain inhibition
Dynein cargo inh cytoplasmic EGFP = recorded beside Dynein cargo inh, whose call it bears; z-score; measured here: cytoplasmic GR-EGFP intensity; hits give high values
Dynein cargo inh nuclear GR-EGFP = second read-out of Dynein cargo inh, no call of its own (marks repeat the call); z-score; measured here: nuclear GR-EGFP intensity;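 lower value marks the stronger effect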
Dynein cargo inh cell count = also measured in Dynein cargo inh; calls as there; z-score; measured here: cell count per field
Insulin prom up cell count = recorded beside Insulin prom up, whose call it bears; cell count; measured here: cytotoxicity, nuclei count;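 total cells summed across four imaged fields per well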
MT stabilize HCS Hoechst-high % = second read-out of MT stabilize HCS, no call of its own (marks repeat the call); % Hoechst-high responders; measured here: nuclear condensation Hoechst responders;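 share of cells brighter than vehicle mean plus two SD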
MT stabilize HCS cytotoxicity % = recorded beside MT stabilize HCS, whose call it bears; toxicity, %; measured here: cytotoxicity by cell density;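 0% = mean cell density of plate MIN control wells and 100% = no cells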
Autophagy HCS cell loss 18 h = further read-out of Autophagy HCS, marked with its call; toxicity, %; measured here: cell loss, nuclei count;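 cell loss after 18 h compound exposure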
* hit, by the source's call; i = inactive; ? = inconclusive; · = no result given. This is a subset; the hit share may differ from the screen's.

SMILES	WT yeast gro inh	WT yeast gro inh mutant strain	MT stabilize HCS	MT stabilize HCS Hoechst-high %	MT stabilize HCS cytotoxicity %	Autophagy HCS	Autophagy HCS cell loss 18 h	Dynein cargo inh	Dynein cargo inh cytoplasmic EGFP	Dynein cargo inh nuclear GR-EGFP	Dynein cargo inh cell count	Yfh1-off respiration	Insulin prom up	Insulin prom up cell count
Cc1ccc(S(=O)(=O)/N=C(\c2ccc(F)cc2)n2c(C)nc3ccccc32)cc1	18	19	1.8	1.7	8.4	i	-3	-0.74	-0.23	-0.41	0.71	i	0.23	1491
CCOC(=O)/C(C#N)=C/C1=C(N2CCCC2)CC(C)(CC)OC1 (stereo not given)	-7	-9	0.8	0.9	9.4	i	2	0.18	0.18	0.45	0.067	i	·	·
COC(=O)c1ccc(NC(C)=O)o1	-28	-19	2.2	1.9	9.0	i	12	0.059	-0.21	0.49	0.027	i	-0.52	1699
COc1ccc2c(c1)-c1nc(NC(=O)c3cccs3)sc1CC2	72*	32*	2.6	1.5	3.7	i	16	0.29	-0.23	0.11	1.2	i	-0.88	1424
O=S(=O)(NCc1cccnc1)c1ccc(Cl)s1	1	-20	1.6	2.0	5.8	i	-6	-0.28	-0.24	-0.84	0.37	i	-1.1	1536
COc1ccc(OC)c(NC(=O)CSc2nc3ccccc3cc2Cc2ccccc2)c1	15	3	1.1	1.3	13	i	2	0.074	-0.3	0.26	-0.68	i	1	1509
O=C1c2ccccc2C(=O)c2c1ccc(C(=O)N1CCCCC1)c2NCCO	38	22	2.2	2.0	3.7	i	-7	-0.15	-0.2	-0.7	0.2	i	-0.3	1546
COc1ccc(C2C(C(C)=O)=C(O)C(=O)N2CCCn2ccnc2)cc1 (stereo not given)	0	0	1.1	1.3	7.1	i	-5	-0.64	-0.26	-0.21	0.31	i	-0.66	1630
O=C(CC1CCCCC1)Nc1ncn[nH]1	9	-15	2.3	1.6	5.7	i	2	-0.37	-0.19	-0.87	0.74	i	1.5	1353
CC(=O)c1c(C)[nH]c(C(=O)OCC(=O)N(C)C)c1C	10	-1	3.2	1.2	7.1	i	2	1.7	-0.23	-0.36	-0.16	i	0.16	1387
CCOC(=O)c1cc(-c2ccc(OC)cc2F)nc2c1c(C)nn2CCC#N	-11	8	1.9	2.4	10	i	18	1.6	-0.2	2.1	-1	i	-1.7	1460
CC(C)CCNC(=O)Cc1ccccc1[N+](=O)[O-]	1	13	1.6	1.9	13	i	7	-0.36	-0.19	-0.57	-0.22	i	-0.05	1573
CC(=O)Nc1cc(C(=O)N2CCCC2)ccc1S(=O)(=O)c1ccc(C)cc1	-6	-19	5.2	2.4	12	i	7	-0.069	-0.017	-0.41	0.98	i	-0.32	1592
c1ccc(-c2ccc3c(c2)c2c4n3CCN=C4CCC2)cc1	4	2	6.5	1.4	17	i	4	-0.27	0.33	-0.74	-0.11	i	-0.09	869
Cc1cc(=O)[nH]c(-n2nc(C)cc2C)n1	10	1	3.9	2.9	3.1	i	-3	-0.23	-0.028	0.21	-0.44	?	0.51	1559
Cc1c(OCC(F)(F)F)ccnc1CSc1nc2ccccc2[nH]1	8	3	3.2	1.6	4.7	i	1	-0.011	-0.27	-0.66	-0.48	i	-0.09	1651
Cc1cccc(OCC(=O)NC(=S)N2CCCc3ccccc32)c1	-5	9	1.5	1.1	9.8	i	15	1.1	-0.22	1.2	-0.098	i	-0.55	1468
CC(C)c1ccc(NC(=O)COC(=O)C2=COCCO2)cc1	15	-4	2.0	1.6	1.8	i	-1	-0.62	-0.24	-0.15	1	i	-0.39	1263
Cc1cc(C)c(S(C)(=O)=O)c(Oc2ccc(F)cc2)n1	23	-2	2.0	1.9	10	i	-10	-1.1	-0.061	0.13	0.039	·	0.15	1635
O=C(O)C1CC=CCC1C(=O)NCc1cn2ccccc2n1 (stereo not given)	9	6	3.9	1.3	8.5	i	10	0.02	-0.081	0.11	-0.19	i	-0.67	1432
O=C(c1cccc(F)c1)N1CCC(O)(c2cccnc2)CC1	5	26	4.3	1.4	6.1	i	2	1.1	-0.27	-0.1	-0.81	i	-0.14	1532
Cc1ccc2c(c1)NC(=O)c1cccnc1N2	0	-3	2.0	1.7	10	i	1	-0.014	-0.2	0.62	0.53	·	-0.24	1677
CC1CCCN(CC(O)COCC2COc3ccccc3O2)C1 (stereo not given)	5	11	1.2	2.2	7.0	i	14	-0.78	-0.2	-0.59	1.3	i	-0.09	1454
Cc1ccc2nc(C(C)O)[nH]c2c1 (stereo not given)	2	-5	2.1	0.8	2.4	i	-9	-0.43	0.1	-0.78	0.17	i	1.5	1646
CC(=O)c1c(N2CCN(C)CC2)[nH]c(-c2ccccc2)nc1=S	-6	12	3.2	2.6	6.2	i	-3	0.033	0.14	0.41	-0.79	i	0.02	1650

Additional results:
SMILES	WT yeast gro inh	WT yeast gro inh mutant strain	MT stabilize HCS	MT stabilize HCS Hoechst-high %	MT stabilize HCS cytotoxicity %	Autophagy HCS	Autophagy HCS cell loss 18 h	Dynein cargo inh	Dynein cargo inh cytoplasmic EGFP	Dynein cargo inh nuclear GR-EGFP	Dynein cargo inh cell count	Yfh1-off respiration	Insulin prom up	Insulin prom up cell count
O=C(CC(=O)NC1CCCCC1)N/N=C/c1ccc(Cl)cc1	0	-2	3.2	1.6	9.0	i	-20	-0.31	-0.13	-0.38	0.61	i	0.12	1660
O=C(NC1CCCCC1)N1CCCC(c2nc(-c3cccs3)no2)C1 (stereo not given)	10	9	2.6	2.0	2.7	i	3	-0.94	-0.092	-0.25	-0.54	i	-0.62	1141
Oc1ccccc1/C=N/n1c2ccccc2c2ccccc21	-14	15	2.1	1.9	10	i	3	-0.51	-0.16	0.11	0.46	i	-0.51	1451
COc1ccc2oc(-c3ccc(C)c(NC(=O)CSc4ccc(Cl)cc4)c3)nc2c1	-2	1	1.1	1.1	5.7	i	-13	-0.34	0.92	-0.1	-0.099	i	-0.62	1004
CCC(C)[C@H](NC(=O)OC(C)(C)C)c1nnc(SCc2c(C)[nH]c(=O)[nH]c2=O)o1 (stereo not given in full)	-5	-2	4.6	1.7	4.9	i	3	0.21	-0.27	-0.013	0.31	i	-0.11	1525
Cn1c(NCCN2CCOCC2)nc2c1c(=O)n(Cc1cccc(Cl)c1)c(=O)n2C	-6	-1	6.6	2.9	7.3	i	-3	-1.1	-0.14	-0.39	0.74	i	-0.13	1219
CCOc1ccc(C(=O)CCNC(Cc2cnc[nH]2)C(=O)O)cc1 (stereo not given)	-3	-12	1.5	1.5	4.8	i	-2	-0.77	-0.22	-0.51	0.96	i	-0.06	1492
O=C(CSCc1ccc(F)cc1)N1CCN(c2ccccc2)CC1	23	15	2.2	1.3	2.1	i	0	0.19	-0.23	-0.83	0.13	i	0.01	1421
CCNc1nc(Oc2ccc(=O)n(-c3ccccc3)n2)nc(N(C)C)n1	6	-3	3.2	1.3	7.8	i	1	-0.087	-0.21	0.26	-0.31	i	0.19	1437
Cc1ccccc1OCC(O)Cn1c2ccccc2c2ccccc21 (stereo not given)	20	-3	2.0	1.5	5.5	i	-3	-0.81	-0.18	-0.59	0.73	i	-0.08	1544
CS(=O)(=O)N1CCN(c2ccc([N+](=O)[O-])c(N3CCOCC3)c2)CC1	14	-8	2.8	1.6	3.1	i	15	-0.23	-0.15	0.59	-0.45	·	-0.12	1657
CCOc1cc(C2NC(=O)NC(c3ccccc3)=C2C(C)=O)ccc1OCC(N)=O (stereo not given)	23	11	3.7	2.1	2.8	i	11	0.69	-0.14	1.4	-0.64	·	-0.83	1569
C=CCOC(=O)C1=C(C)NC(SCC(=O)Nc2nccs2)=C(C#N)C1c1ccc(Cl)cc1 (stereo not given)	15	-5	2.9	1.6	5.1	i	-2	0.12	-0.22	-0.85	-0.14	?	-0.59	1303
COc1ccc(C(C(=O)NC2CCCCC2)N2CCC3(CC2)OCCO3)cc1 (stereo not given)	5	-1	3.8	2.3	5.3	i	-26	1.7	-0.13	1.1	-1.1	i	-0.23	1708
COc1cc(NC(=O)c2c(F)cccc2F)nc(OC)n1	57	-32	5.5	3.6	6.6	i	13	0.083	-0.28	0.3	-0.67	i	0.21	1666
COCCN1CSC(=S)N(Cc2ccco2)C1	6	-6	9.0	4.4	2.9	i	-6	-2.2	0.39	-1.1	-1.6	i	-0.51	1379
CCn1c(SCc2ccc([N+](=O)[O-])cc2)nnc1C(C)NC(=O)c1ccccc1Br (stereo not given)	-10	3	2.6	1.7	3.4	i	11	-0.92	-0.059	0.22	1.1	i	-0.11	1599
COc1cccc(C(=O)Nc2nc3c(s2)CN(C)CC3)c1	53	-9	3.2	1.4	5.2	i	0	-0.11	-0.13	-0.71	-0.5	i	0.83	1256
CC(=O)N1N=C(c2ccc3nccnc3c2)CC1c1ccccc1 (stereo not given)	5	3	1.0	0.6	1.6	i	-6	-0.067	-0.22	-0.12	0.14	i	0.29	1331
COc1ccc(Br)cc1C(=O)Nc1cc(C)cc(C)c1	-8	9	2.6	1.2	0.2	i	-4	-0.36	-0.2	-0.81	-0.2	i	-1.6	1643
COc1ccc2cc3cc(C(=O)NCCc4ccc(OC)c(OC)c4)oc3nc2c1	15	2	1.5	1.5	7.5	i	-9	-0.12	-0.2	-0.032	0.53	·	1.3	1596
COc1ccc(OC2C(=O)N(CCc3ccc(OC)c(OC)c3)C2c2ccc3c(c2)OCO3)cc1 (stereo not given)	27	6	1.3	1.7	15	i	3	-1.3	-0.24	-0.84	2	?	-0.18	1875
CCCc1cc(=O)oc2cc(OCC(=O)N3CCc4ccccc43)ccc12	13	13	2.3	1.7	0.6	i	3	-0.018	-0.19	-0.66	-0.28	i	-0.04	1658
CCCC(=O)Nc1c(-c2cccs2)c(=O)c2ccccc2n1CC	-6	-22	3.8	1.9	2.5	i	2	-1.1	-0.21	-0.35	0.81	·	0.81	1619
COC(=O)Cn1c(=O)c2c(nc(Br)n2Cc2ccccc2Cl)n(C)c1=O	4	2	1.6	1.4	6.7	i	38	-0.24	-0.11	0.67	-0.36	i	-0.42	1699
Cc1ccccc1-c1nnc(SCC(=O)NCc2ccc3c(c2)OCO3)n1C	-1	11	1.6	1.7	6.3	i	-6	-0.46	-0.068	-0.22	-0.058	i	·	·
CCOc1ccccc1Nc1nc(-c2sc(NC(=O)c3cccc(Cl)c3)nc2C)cs1	-2	-8	8.0	14	19	i	0	-0.45	-0.15	0.24	0.91	i	-0.75	1312
Cc1ccc(SCC(=O)N2c3ccccc3Sc3ccccc32)cc1	42	7	1.6	1.0	1.2	i	2	0.23	-0.2	0.068	-0.079	i	0.67	1540
Cc1ccccc1-n1ncc2c([N+](=O)[O-])cc([N+](=O)[O-])cc21	3	19	2.6	1.3	7.8	i	10	-0.23	-0.21	-0.95	0.058	i	-0.81	1451
CCN1CCN(C(c2cccs2)C(C)NC(=O)c2cccnc2)CC1 (stereo not given)	-7	-2	4.7	1.3	5.3	i	3	-0.24	-0.23	0.019	0.42	i	0.35	1592
